GIV-Gai inh = GIV-Galpha-i interaction inhibition; P08753; Galpha-i3/FITC-GIV peptide fluorescence polarization, 90 min; stronger effect = lower value; scaled: aluminum fluoride 0%, vehicle 100%; percent of control (FP), % (no concentration beside the values); actives 0.42% (n = 210,000); AID 1224905;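 active = replicate mean at 85% of control or lower, very high polarization wells dropped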;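 note: wells of about 15 µL received 100 nL stock; the first replicate is given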
Target sequence (P08753 whole entry, looked up): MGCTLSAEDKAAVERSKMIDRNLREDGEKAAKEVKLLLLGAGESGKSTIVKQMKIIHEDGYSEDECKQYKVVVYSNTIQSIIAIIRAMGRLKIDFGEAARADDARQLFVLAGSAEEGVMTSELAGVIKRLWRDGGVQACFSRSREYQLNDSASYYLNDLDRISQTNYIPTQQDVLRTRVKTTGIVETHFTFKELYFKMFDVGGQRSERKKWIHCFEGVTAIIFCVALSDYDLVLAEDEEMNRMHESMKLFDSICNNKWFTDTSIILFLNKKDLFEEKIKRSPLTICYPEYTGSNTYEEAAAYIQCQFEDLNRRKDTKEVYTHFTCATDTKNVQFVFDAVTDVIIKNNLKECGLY
Sa growth 42C = S. aureus growth inhibition | S. aureus RN4220 growth, OD600, 20 h, 42 °C; stronger effect = lower value | relative growth, % (concentration not given with the values) | actives 0.53% (n = 170,000) | AID 720641;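 active = growth at 42 °C up to 50% and 20 or more points under that at 30 °C, or under 10% at both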;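 note: 300 nL library stock went into each well; scaled to the means of positive and negative controls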
HCMV UL50-53 inh = cytomegalovirus nuclear egress complex inhibition | HTRF UL50-UL53 interaction, normalized percent inhibition | inhibition, % (no concentration beside the values) | actives 0.15% (n = 190,000) | AID 1918969;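 active = both replicates at 50% or more, plus weaker picks with an unusually low signal ratio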;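 note: stock transfer was 100 nL into about 20 µL; 0% = negative control wells and 100% = wells with untagged competitor protein; inactives centre near -12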
Sa growth 42C second temp = second read-out of Sa growth 42C, no call of its own (marks repeat the call); relative growth, %; measured here: growth at 30 °C;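 optical density after 20 h as mean of two plates; 100% = untreated growth and lower means inhibition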
* marks the source's active call; other numbers are inactive results; x = no result given; & = joins results of further samples.

SMILES	GIV-Gai inh	Sa growth 42C	Sa growth 42C second temp	HCMV UL50-53 inh
CCC(=O)Nc1cccc(NC(=O)c2cc(OC)cc(OC)c2)c1	105.6	100.2	92.3	5.2
COc1ccccc1NC(=O)Cn1c(=O)c(CNc2ccccc2)cc2cc(OC)c(OC)cc21	103.1	91.9	94.1	x
O=C(Nc1sc2c(c1CN1CCOCC1)CCCC2)c1ccccc1	x	76.5	92.2	-10.8
CCOC(=O)c1cccc(NC(=O)CCc2c(C)nc3c4cccnc4nn3c2C)c1	109.5	116.7	91.0	-19.5
Cc1noc(C)c1C(=O)Oc1ccc(Cl)cc1	101.6	78.1	101.5	-1.3
Cc1nn(-c2cc(N3CCCC3)ncn2)c(C)c1CCC(=O)N1CCCC1	98.2	x	x	-15.0
Cc1[nH][nH]c(=O)c1CCCOc1ccccc1	x	91.1	107.6	20.7
COc1ccccc1N1CCN(C(=O)c2cc(CC(C)C)on2)CC1	104.1	106.6	92.7	-2.3
Fc1ccc(N2CCN(c3ccc(Cl)nn3)CC2)cc1	105.3	x	x	-34.9
CCCn1c2ccccc2c2cnn(CC(=O)N3CCCC(C)C3)c(=O)c21 (centres undefined)	104.8	122.2	107.5	x
O=c1oc2c3c(ccc2c2ccccc12)OCN(Cc1ccccc1)C3	101.0	87.3	74.0	-0.9
O=C(NCc1ccccc1)c1cc(-c2ccccc2)c(N2CCOCC2)s1	103.4	95.5	89.7	x
Cc1ccc(NC(=O)Cn2c(CCC(=O)O)ccc2-c2cccs2)cc1Cl	100.9	105.8	79.0	-26.0
CCC(=O)Nc1nnc(SCc2cc(=O)c3cc(C)ccc3[nH]2)s1	106.9	102.8	91.4	x
CC(C)CNC(=O)N1c2ccccc2Sc2ccccc21	91.1	130.2	80.2	x
CC1Cc2cccc3c(O)cc(=O)n1c23 (centres undefined)	x	55.2	34.1	-15.7
COc1cccc(N2CCN(C(=O)c3cc4c(s3)-c3ccccc3OC4)CC2)c1	106.0	80.6	97.1	-6.4
O=C(COc1ccc(F)cc1)Nc1nnc(SCc2cc(=O)n3ccccc3n2)s1	100.7	94.9	87.6	x
CCN(CC)C(=O)c1sc2c(c1C)c(=O)n(Cc1ccccc1)c(=O)n2CC(=O)Nc1ccc(OC)cc1	105.8	127.0	108.3	x
CCC(O)C1=C(c2cccs2)Oc2ccccc2C1c1ccccc1C (centres undefined)	101.1	83.4	80.3	x
CCNC(=S)n1ncc(C(=O)OCC)c1N	x	103.0	93.2	-17.4
Cc1n[nH]c(C)c1-c1ccc(Cl)c(C(=O)O)c1	102.6	102.3	91.5	-86.0
COc1ccc(C2C3=C(CC(c4ccc(Cl)cc4)CC3=O)Nc3onc(C)c32)cc1OC (centres undefined)	102.8	x	x	-10.9
Cc1cccc(NC(=O)C2CCN(S(=O)(=O)c3ccc4c(c3)CCCN4C(=O)C3CCC3)CC2)c1	101.9	116.8	93.9	x
CC(O)(C#CCN1CCOCC1)c1ccccc1 (centres undefined)	x	84.0	100.4	-7.8
Cc1ccc2nc(-c3ccc(-c4ccccn4)s3)cn2c1	107.2	86.0	74.2	-82.3
COc1cccc(C(c2sc3nc(-c4ccco4)nn3c2O)N2CCC3(CC2)OCCO3)c1 (centres undefined)	98.2	158.0	87.6	x
Cn1c(=O)[nH]c2nnc(-c3ccccn3)nc2c1=O	94.1	116.2	85.6	x
CC(C)c1cc(N=NC(N)=O)cc(C(C)C)c1O	96.8	84.3	71.3	-120.9
O=C(O)C1=CC(c2ccccc2)n2nnnc2N1 (centres undefined)	96.3	97.4	87.6	-34.7
O=C1CN(Cc2ccccc2)C(=NCc2ccco2)S1	110.4	85.6	58.3	-3.6
CC1=C(/C=C/C(C)=C/C=C/C(C)=C/C=C/C=C(C)/C=C/C=C(C)/C=C/C2=C(C)C(=O)CCC2(C)C)C(C)(C)CCC1=O	106.8	89.0	82.5	-31.1
O=CNCCCc1nc2ccccc2n1Cc1ccc(F)cc1	104.8	102.4	104.7	-6.4
CCOC(=O)c1sc2nc(CSc3nncn3-c3ccccc3)[nH]c(=O)c2c1C	x	98.0	95.0	-15.6
CC(NC(=O)CSc1n[nH]c(-c2ccccc2Cl)n1)c1nc2ccccc2n1C (centres undefined)	109.2	97.3	91.7	x
Cc1ccc(-c2c(C(=O)N3CCCCC3)oc(=O)c3ccccc23)cc1	99.9	100.1	84.8	x
CCCCSc1cc2c(cc1NS(C)(=O)=O)n(C)c(=O)n2C	107.6	x	x	-11.5
O=C(NCc1cccnc1)c1c(-c2ccc(Cl)cc2)nc2n1CCS2(=O)=O	105.8	x	x	-26.2
CCOC(=O)C1=C(C)NC2=C(C(=O)CC(c3ccco3)C2)C1c1cccs1 (centres undefined)	100.1	103.1	92.6	-11.6
CCc1ccccc1OCCSc1nc(-c2cccs2)nc2cc(=O)[nH]n12	102.2	101.6	94.5	x
CC(Oc1ccccc1Cl)C(=O)N1CCCc2ccccc21 (centres undefined)	x	87.2	95.9	0.4
CN(CCO)Cc1cc(N2CCN(C(=O)c3ccco3)CC2)c2c3c(onc13)-c1ccccc1C2=O	106.3	109.7	49.0	-144.6
Cc1ccc(Cn2c(=O)n(CCC(=O)N3CCc4ccccc4C3)c(=O)c3ccccc32)cc1	101.0	110.4	87.8	x
COc1ccc(COn2c(=O)c(C)[n+]([O-])c3ccccc32)cc1OC	112.9	99.3	85.9	-90.3
O=C(Nc1ccc2c(c1)OCCO2)N1CCc2c([nH]c3ccccc23)C1c1ccc(F)cc1 (centres undefined)	106.4	x	x	-10.0
c1ccc(COc2ccccc2OCc2ccccc2)cc1	x	97.7	102.0	-4.2
O=C(CN1CCc2sccc2C1c1cccs1)Nc1ccc2c(c1)OCO2 (centres undefined)	x	97.8	95.7	-18.9
Cc1cccc(NC(=O)CN2C(=O)CC(c3ccccc3)=Nc3ccccc32)c1C	103.2	x	x	-30.3
Cc1ccc(NC(=O)C(Cc2ccccc2)NC(=O)c2ccco2)cc1 (centres undefined)	104.3	104.3	93.2	-13.0
O=c1c2[nH]cnc2n(-c2ccccc2)c(=O)n1Cc1ccccc1	114.1	100.0	93.1	-6.9
Cc1ccc(S(=O)(=O)NCC2CCC(C(=O)NCCCOC(C)C)CC2)cc1 (centres undefined)	98.2	117.8	89.9	x
Clc1ncn(CCOc2ccccc2)c1Cl	x	108.3	85.2	5.8
COC(=O)C1=C(C)Nc2nnnn2C1c1ccccc1 (centres undefined)	104.1	x	x	-17.7
CN1CCN(C(=O)c2cnn(-c3ccccc3)c2C2CCN(C(=O)OC(C)(C)C)CC2)CC1	112.7	104.5	102.3	x
Cc1nn(-c2ccccc2)c2[nH]c(C(F)(F)F)cc(=O)c12	104.8	16.9	4.0	4.2
O=c1c(-c2nc(-c3ccccc3F)no2)c[nH]c2ccccc12	100.3	x	x	-12.0
Cc1nc2cc(Cl)ccc2n1-c1ccccc1	x	86.3	46.1	-7.4
CC(C)NC(=O)CN1CCN(c2nc(Cc3ccc(Cl)cc3Cl)nc3c2nnn3C)CC1	100.5	104.8	91.4	8.3
COc1ccc(C)cc1S(=O)(=O)NNc1nc(C)cc(C)n1	x	94.7	91.7	-29.9
NC(=O)c1ccc(NC(=O)COC(=O)Cc2ccc(-c3ccccc3)cc2)cc1	x	92.5	80.9	-34.2
(listing goes on)
SMILES	GIV-Gai inh	Sa growth 42C	Sa growth 42C second temp	HCMV UL50-53 inh
COC(=O)C1c2ccccc2-c2ccccc21	93.0	112.0	92.2	-36.5
COc1ccccc1N1CCN(c2nc3ccc(C)cc3n3nnnc23)CC1	109.2	95.7	97.4	x
O=C(Nc1cccc(Cl)c1)N1CCN(c2nc3ccccc3n(Cc3ccccc3)c2=O)CC1	109.2	x	x	-13.7
CCOc1ccccc1/C=C/c1onc(C)c1S(=O)(=O)N1CCC(C(=O)N2CCCCC2)CC1	108.3	114.5	91.1	x
CN(C)c1nnc2c(Cl)cc(C(F)(F)F)cn12	103.4	x	x	0.7
O=C(Nc1ccccc1)Nc1nc(CC(=O)N2CCCC2)cs1	102.7	x	x	-10.5
COC(=O)c1c(NC(=O)COc2cccc(C(F)(F)F)c2)sc2c1CCCC2	106.8	101.7	82.5	-40.9
COc1ccc(C(=O)COC(=O)c2ccc(NC(C)=O)cc2)c(OC)c1	x	98.0	95.6	-8.5
COc1ccc(C2=NC3(CCCCCC3)N(CC(=O)Nc3ccc(C)c(C)c3)C2=O)cc1	105.3	99.6	85.0	-20.1
COc1ccc(NC(=O)c2sc3nc(C)c(C(=O)Nc4ccc(Cl)cc4)c(-c4ccc(Br)cc4)c3c2N)cc1	110.5	99.8	91.3	0.0
COc1ccc(OC)c(S(=O)(=O)Nc2cnc(N3CCCC3)c(C(=O)O)c2)c1	93.7	x	x	-26.6
COc1ccc(C2Nc3ccccc3C(=O)N2c2ccccc2)cc1COc1ccccn1 (centres undefined)	107.3	x	x	-11.3

Sorted by the number under GIV-Gai inh (falling): 3 from the list above
structure	GIV-Gai inh	Sa growth 42C second temp
COc1ccc(C2Nc3ccccc3C(=O)N2c2ccccc2)cc1COc1ccccn1 (centres undefined)	107.3	x
CN(C)c1nnc2c(Cl)cc(C(F)(F)F)cn12	103.4	x
O=C(Nc1ccccc1)Nc1nc(CC(=O)N2CCCC2)cs1	102.7	x

More compounds follow:
SMILES	GIV-Gai inh	Sa growth 42C	Sa growth 42C second temp	HCMV UL50-53 inh
CCOc1cccc2cc(-c3nc4sc5c(c4c(=O)[nH]3)CCC(C(C)(C)C)C5)c(=O)oc12 (centres undefined)	103.4	106.1	94.2	-3.1
CC(C)CNC(=O)CSc1ncnc2ccccc12	x	76.5	82.7	-28.1
CC(=O)N1CCc2cc(NC(=O)CSc3nnc4ccccn34)ccc21	99.6	79.1	84.1	-19.8
COc1ccc(CNC(=O)c2ccc(C3SCC(=O)N3CCc3ccccc3)cc2)cc1 (centres undefined)	103.2	x	x	-22.7
O=C(NCC1CCCO1)C1c2ccccc2Oc2ccccc21 (centres undefined)	100.7	112.0	85.6	x
CCOC(=O)c1c(C)noc1/C(C)=N/OC(=O)Nc1cccc(C(F)(F)F)c1	100.5	16.8	29.1	-45.5
CN(C)c1cc(N=C2CCCN2c2ccccc2)c2ccccc2n1	107.9	101.3	90.8	x
C[N+]1(CC[N+]2(C)CCCCC2)CCCCC1	x	113.5	90.9	-8.3
CC(=O)Nc1ccc(-n2cc3c(c2-c2ccc(C)cc2)c(=O)n(C)c(=O)n3C)cc1	105.8&168.0	114.2	80.8	-44.2&-44.7
Cc1nn(CC(=O)NCC2CCCO2)c(=O)c2cc3occc3n12 (centres undefined)	97.2	90.2	82.1	x
CC(C)c1ccc(C(=O)CC2(O)C(=O)N(CCc3ccccc3)c3ccc(Cl)cc32)cc1 (centres undefined)	106.1	94.6	74.7	-15.2
CCN1CCN(C(=O)Cn2c(-c3cccs3)cc3cc(Cl)ccc32)CC1	100.8	105.5	93.7	x
Cc1c(C(=O)N2CCc3ccccc32)sc2nc3n(c(=O)c12)CCC3	x	68.6	91.8	-25.4
COCCn1c(C)nc2c(c1=O)c1nc3ccccc3nc1n2-c1ccc(Cl)c(Cl)c1	x	95.3	94.7	-13.4
Oc1ccccc1CN1CCCN(Cc2ccccc2O)C1	102.9	123.8	90.9	x
N#CCn1c(COC(=O)c2cccs2)nc2ccccc2c1=O	x	82.0	89.1	-28.4
CCOC(=O)c1c(C)n(CC)c2cc(Br)c(O)cc12	108.3	88.3	108.2	5.3
Cc1snnc1C(=O)Oc1ccccc1-c1nnco1	99.7	95.5	91.8	-21.1
CCOC(=O)C1CCCN(c2c(N3CCN(c4ccccn4)CC3)c(=O)c2=O)C1 (centres undefined)	101.8	x	x	-19.7
O=S(=O)(c1ccc2nsnc2c1)N1CCCCC1	99.9	71.8	112.2	-67.3
CCCn1c(=O)c2sccc2n2c(SCc3ccc(F)cc3)nnc12	102.8	x	x	-42.2
CC(NC(=O)OCC1c2ccccc2-c2ccccc21)C(=O)O (centres undefined)	110.3	125.7	102.8	29.4
Cc1ccc(S(=O)(=O)N(CCOc2ccccc2)c2nc3nc(C)cc(C)n3n2)cc1	106.3	x	x	-12.0
S=c1sc2ccccc2n1CN1CCN(c2ccccn2)CC1	x	64.0	32.1	-34.2
O=C(c1ccc2c(c1)N(Cc1ccc(F)cc1)C(=O)c1ccccc1S2(=O)=O)N1CCN(c2ccccn2)CC1	100.5	102.6	97.6	25.3
COc1ccccc1CNC(=O)CCCn1nc(C)c2sc3ccccc3c2c1=O	103.4	98.2	93.7	-31.0
Cc1c(-c2nnnn2-c2ccccc2)cnc2ccccc12	102.2	104.4	86.6	-32.3

Fetched by compound from above, seven records:
SMILES	GIV-Gai inh	Sa growth 42C	Sa growth 42C second temp	HCMV UL50-53 inh
COc1ccc(NC(=O)c2sc3nc(C)c(C(=O)Nc4ccc(Cl)cc4)c(-c4ccc(Br)cc4)c3c2N)cc1	110.5	99.8	91.3	0.0
CCC(O)C1=C(c2cccs2)Oc2ccccc2C1c1ccccc1C (centres undefined)	101.1	83.4	80.3	x
Cc1ccc2nc(-c3ccc(-c4ccccn4)s3)cn2c1	107.2	86.0	74.2	-82.3
CCOC(=O)c1c(C)n(CC)c2cc(Br)c(O)cc12	108.3	88.3	108.2	5.3
Cc1cccc(NC(=O)CN2C(=O)CC(c3ccccc3)=Nc3ccccc32)c1C	103.2	x	x	-30.3
Fc1ccc(N2CCN(c3ccc(Cl)nn3)CC2)cc1	105.3	x	x	-34.9
O=C(c1ccc2c(c1)N(Cc1ccc(F)cc1)C(=O)c1ccccc1S2(=O)=O)N1CCN(c2ccccn2)CC1	100.5	102.6	97.6	25.3

Screens deposited in PubChem BioAssay by ICCB-Longwood Screening Facility, Harvard Medical School.
